# Mtb hypoxia rep – inhibitors of hypoxia-regulated fluorescent reporter in Mycobacterium tuberculosis | M. tuberculosis hypoxia-regulated fluorescent reporter, fluorescence | fluorescence inhibition, % (no concentration beside the values) | 0.1% of 300,000 active;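 active means 35 to 45% if threefold the growth effect, above 45% if 1.5-fold the growth effect; inactive means the rest, general growth blockers included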;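 further: wells of about 50 µL received 100 nL stock; 0% = vehicle wells and 100% = reference inhibitor wells; whole bacteria with a GFP reporter of the hypoxia response; strong numbers were not always called active; many hits fall short of the cut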
# BJeLR viability – BJeLR cell viability loss; BJeLR (HRASV12) viability, CellTiter-Glo ATP luminescence, 48 h; reference of the scale not given here; inhibition, % (concentration not given with the values); 0.17% of 300,000 active;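 active means replicate mean above 50%; inconclusive means above 50% but judged a plate artefact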;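 further: 50 nL library stock added to about 25 µL; numbers are from one replicate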
# ugtP null kill – compounds lethal to S. aureus RN4220 ugtP deletion mutant; OD600 growth, 16 h; some inactives read as strong as hits; growth inhibition, % (concentration not given with the values); 0.54% of 330,000 active;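 active means z-score under -3 and OD600 up to 0.15 on both plates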;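 further: plate controls were untreated wells for no effect and antibiotic for full effect; wells of about 80 µL received 100 nL stock; the first replicate is given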
# RN4220 kill – S. aureus RN4220 growth inhibition. OD600, 16 h. inhibition, % (concentration not given with the values). 0.33% of 330,000 active. AID 1259311;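 active means z-score of -3 or lower and OD600 up to 0.18 on both plates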;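 further: plate controls were untreated cells for no effect and reference antibiotic for full effect; stock transfer was 100 nL into about 80 µL; one replicate is shown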
# Bead autofluor – flagged as autofluorescent in microsphere protease counterscreen; compound autofluorescence counterscreen, microsphere flow cytometry; active compounds read high; fluorescence intensity (concentration not given with the values); 3.1% of 360,000 active;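 active means at least 3 SD above the mean of all compounds, about 16000 in these data; inconclusive means too few beads counted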;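 further: 100 nL of 1 mM stock went into each well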
# PrP UTR inh – inhibition of PrP 5' UTR reporter expression | cell-based PrP 5' UTR mRNA reporter, plate reader | inhibition, % (no concentration beside the values) | 0.35% of 340,000 active;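 active means every replicate at 50% or more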;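 further: 0 = median of the neutral control wells; tested in H4 reporter cells; numbers are from one replicate; inactives centre near -14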
# Mtb hypoxia rep growth – recorded beside Mtb hypoxia rep, whose call it bears; growth inhibition, %; measured here: M. tuberculosis growth (absorbance);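 0% = vehicle and 100% = reference antibiotic; read after six days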
# Numbers without * were called inactive; ? = inconclusive; · = no result given; & = joins results of further samples.
SMILES,Mtb hypoxia rep,Mtb hypoxia rep growth,BJeLR viability,ugtP null kill,RN4220 kill,Bead autofluor,PrP UTR inh
Cc1ccc(S(=O)(=O)/N=C(\Sc2ccccc2)c2ccccc2)cc1,·,·,-22,·,·,24784*,43
CCN(CCn1cccn1)C(=O)c1ccc2nc(Cc3ccc(OC)cc3)oc2c1,1,4,2,3,-1.5,5391,-12
CC(=O)C(N=Nc1ccccc1)(Sc1nnc(-c2ccccc2)n1-c1ccccc1)C(C)=O,1,12,-3,13,-3.0,22141*,0
Cc1ccc(Cl)cc1NC(=O)c1ccc(Cn2cc(Cl)cn2)cc1,-2,5,1,-3,-7.6,2753,-2
O=C(CSC1CCCCC1)Nc1nccs1,-10,5,-2,2,8.0,3226,-33
CCOC(=O)C1CCN(C(=O)c2cc(COc3ccc(OC)c4ccccc34)on2)CC1,10,1,9,4,-4.3,4879,-65
NC(=S)N/N=C/c1coc2cc(Cl)ccc2c1=O,·,·,2,·,·,10981,-15
N/C(=N\OC(=O)c1ccccc1)c1ccncc1,-2,14,1,-2,-2.5,4264,-29
Cc1ccc(C=NNC(=O)c2cc(-c3cccnc3)nc3ccccc23)o1,11,8,·,-4,-1.0,3074,-39
COCCCNC(=O)c1ccc(N(C)S(C)(=O)=O)cc1,5,-4,9,-2,-2.7,5569,-44
Cc1ccc(S(=O)(=O)N2CCCN(C(=O)OC(C)(C)C)CC2)cc1,-4,-7,2,0,2.4,5613,-28
N#Cc1cc2c([nH]c1=S)CCCCCC2,-4,-1,3,3,-5.6,5572,0
Cn1cnnc1SC(C(=O)Nc1cccc(C(F)(F)F)c1)c1ccccc1 (stereo unspecified),4,3,-8,-7,7.9,2870,-1
COc1cc(CNCCO)cc(Cl)c1OCc1ccccc1Cl,14,9,5,-8,-2.2,4905,13
Cc1nc(NCc2ccccn2)c2c3c(sc2n1)CCCC3,-4,15,10,-3,10,4326,-7
Cn1c2ccccc2c2n[nH]c(=O)nc21,0,-1,-1,5,1.3,2719,-12
Cc1ccc2[nH]c(CSc3ccccc3)cc(=O)c2c1,5,8,0,14,7.6,3827,-21
CCOC(=O)C1CCN(S(=O)(=O)Cc2ccccc2)C1=O (stereo unspecified),-1,1,-11,-6,1.3,2335,-16
O=C(Nc1ccc(F)cc1)c1cc2c(s1)CCCC2,-6,-1,8,-9,-4.3,?,·
Cc1ccc(NC(=O)c2cc3ccccc3oc2=O)cc1S(=O)(=O)N(C)C,0,5,-1,-7,1.4,4721,90*
CCO/C(C)=C1\C(=O)Nc2ccccc21,·,·,-1,6,2.9,2158,-15
CCS(=O)(=O)c1ccc(C(=O)NC)c(Cl)c1Cl,0,9,-8,0,1.8,4451,-5
COC(=O)c1cc(-c2ccc(OC)c(OC)c2)n[nH]1,9,-5,2,0,4.2,2850,-11
COc1ccc(NC(=O)Cn2nnc(C(=O)NCc3ccco3)c2N)cc1,0,7,-4,-8,-2.2,4180,-3
CCOC(=O)C1=C(C)N=c2sc(=Cc3ccc(OCC(=O)O)cc3)c(=O)n2C1c1ccc(F)cc1 (stereo unspecified),-16,8,·,2,19,·,·

# Filtered by structure: the entries above containing a halogen (7)
SMILES,Mtb hypoxia rep,Mtb hypoxia rep growth,BJeLR viability,ugtP null kill,RN4220 kill,Bead autofluor,PrP UTR inh
Cc1ccc(Cl)cc1NC(=O)c1ccc(Cn2cc(Cl)cn2)cc1,-2,5,1,-3,-7.6,2753,-2
NC(=S)N/N=C/c1coc2cc(Cl)ccc2c1=O,·,·,2,·,·,10981,-15
Cn1cnnc1SC(C(=O)Nc1cccc(C(F)(F)F)c1)c1ccccc1 (stereo unspecified),4,3,-8,-7,7.9,2870,-1
COc1cc(CNCCO)cc(Cl)c1OCc1ccccc1Cl,14,9,5,-8,-2.2,4905,13
O=C(Nc1ccc(F)cc1)c1cc2c(s1)CCCC2,-6,-1,8,-9,-4.3,?,·
CCS(=O)(=O)c1ccc(C(=O)NC)c(Cl)c1Cl,0,9,-8,0,1.8,4451,-5
CCOC(=O)C1=C(C)N=c2sc(=Cc3ccc(OCC(=O)O)cc3)c(=O)n2C1c1ccc(F)cc1 (stereo unspecified),-16,8,·,2,19,·,·

# Going on with the list.
SMILES,Mtb hypoxia rep,Mtb hypoxia rep growth,BJeLR viability,ugtP null kill,RN4220 kill,Bead autofluor,PrP UTR inh
O=C(/C=C/c1cccc(Cl)c1Cl)OCC(=O)N1CCOCC1,1,-4,·,1,1.6,4281,-2
CCn1c(SCC(=O)Nc2nc(-c3ccc(C)cc3)cs2)nnc1-c1ccccc1O,·,·,5,37,-7.7,4609,-21
COCCN(C(=O)c1ccccc1F)c1nc(-c2ccc(OC)cc2)cs1,8,7,3,39,-7.2,3698,-34
Cc1nc(SCC(=O)NC(=O)NC(C)C)nc(C)c1C,-5,2,2,-10,-0.9,3044,-1
CCOc1ccc(NC(=O)CCNC(=O)c2ccc(Br)cc2)cc1,-3,13,-7,5,6.2,3033,9
NC(=S)NN=Cc1ccc2cccc(OCc3ccccc3)c2n1,8,0,·,13,3.7,·,·
CN1CCC(=NNc2ncnc3sc4c(c23)CCCC4)CC1,2,9,-19,-5,2.5,2053,-27
COc1ccc(CCn2c(-c3ccc(OC)cc3)nc3c(c(=O)c4ccccc4n3C)c2=O)cc1,5,1,5,6,-0.4,5661,-30
COC(=O)C(NC(=O)c1ccccc1)=C(C)C,·,·,-2,-1,2.8,2632,-16
CC(=O)Nc1ccc(NC(=O)COC(=O)C2(c3ccc(Cl)cc3)CCCC2)cc1,-1,10,-3,-4,-11,2621,-11
Cc1ccc2[nH]c(=O)c(C(c3nnnn3CC3CCCO3)N3CCCc4ccccc43)cc2c1 (stereo unspecified),2,0,-2,-6,2.2,6422,-61
CC1CCCCC1NC(=O)CCn1ccc2cc(S(=O)(=O)N3CCCC3)ccc21 (stereo unspecified),14,4,-5,-1,0.2,5111,-37
Cn1c(SCC(=O)NC2CCCC2)nc2cccnc21,·,·,1,14,3.7,3411,6
COc1ccc(C(=O)OCC(=O)Nc2sccc2C(N)=O)cc1[N+](=O)[O-],10,6,·,0,2.0,·,·
O=C(c1cccc(Br)c1)N1CCCc2ccccc21,·,·,-5,·,·,4201,-16
O=C(COC(=O)c1ccc(Br)o1)Nc1cccc(S(=O)(=O)N2CCCCC2)c1,12,4,·,0,8.6,3690,-10
COC(=O)c1ccc(CO/N=C/c2ccc(OC)cc2)o1,·,·,-8,·,·,3231,-20
CC(C(=O)NCCc1ccc(Cl)cc1)n1c(=O)c2cccn2c2cccnc21 (stereo unspecified),-1,-1,3,-2,0.1,3859,4
CS(=O)(=O)N(CC(=O)NCc1ccccn1)c1ccc2c(c1)OCCO2,11,6,3,-4,4.0,10186,-22
Cc1nn(-c2ccccc2)c(Cl)c1/C=N/NS(=O)(=O)c1ccc(Br)cc1,·,·,10,·,·,2186,-10
CCC(c1nnnn1C(C)(C)CC)N(CCN1CCOCC1)Cc1cc2cc(C)ccc2[nH]c1=O (stereo unspecified),13,3,-3,4,2.2,10139,-10
CCCc1[nH]c2ccc(C(=O)OC)cc2c1CCC,11,-1,-4,-11,-18,2814,-3
NS(=O)(=O)c1cc(C(=O)OCC(=O)Nc2ccccc2[N+](=O)[O-])ccc1Cl,·,·,10,·,·,4284,1
Cc1ccc(C(=O)O)cc1-n1c(C)cc(C=O)c1C,7,4,14,-4,3.6,4369,-9
COCCNC(=O)NC12CC3CC(CC(C3)C1)C2,11,6,-3,1,4.0,2060,1
# (further entries)
SMILES,Mtb hypoxia rep,Mtb hypoxia rep growth,BJeLR viability,ugtP null kill,RN4220 kill,Bead autofluor,PrP UTR inh
Cc1ccc2c(C)nc(/N=C(\N)NC(=O)N3c4ccccc4Sc4ccccc43)nc2c1,7,4,·,-24,5.9,2725&2526,-14&-20
COc1ccc(Cl)cc1NC(=O)CN(C)C(=O)CCNC(=O)c1ccccc1OC,2,3,·,2,2.8,4005,-11
COCC(=O)N1CCC(Oc2ccc(C(=O)NCCCn3cccn3)cc2)CC1,-9,-1,7,-9,-2.4,5667,-3
Cc1ccc(CNC(=O)COC(=O)c2c(C)noc2C)cc1,15,10,2,-1,1.4,4129,-29
O=C(Nc1ccc(OC(F)(F)F)cc1)c1n[nH]c(Cn2cncn2)n1,8,6,-6,0,2.6,10638,-19
CCOC(=O)N1CCN(C2=NC3(CCCCC3)C(C#N)C(=O)N2)CC1 (stereo unspecified),6,11,-2,5,2.1,4398,6
CCC(C)c1ccc(O)c(/C=N/O)c1 (stereo unspecified),·,·,8,·,·,4393,-22
CCNC(=S)N1CCn2cccc2C1c1cccnc1 (stereo unspecified),-4,8,-7,2,1.5,4332,-20
O=C(Nc1ccccc1C(=O)OCn1nnc2ccccc2c1=O)c1ccco1,18,11,4,-13,6.9,?,-16
COc1ccccc1C(=O)NNC(=O)c1cccc(Br)c1,1,-4,-14,4,-0.4,3163,-58
COc1cc(-c2noc(CCC(=O)NC3CCCCC3)n2)cc(OC)c1OC,-4,7,-2,2,3.6,5709,4
Cc1c(C#N)c2ncn(CC#N)c(=O)c2n1-c1ccccc1,·,·,7,5,-0.3,2671,-31
Clc1ccccc1OCCN1CCCCC1,9,2,-10,8,4.8,9778,-19
CC(C)(C)c1cc(C(=O)NNc2cccc(Cl)c2)n(Cc2ccccc2)n1,-5,7,-9,-17,-9.0,6179,-27
Cc1ccc(-n2nnnc2SCC(=O)NCCC2=CCCCC2)c(C)c1,6,-5,2,-6,1.9,20542*,-4
Cc1[nH]c2ccccc2c1CCNS(=O)(=O)c1ccc(S(N)(=O)=O)cc1,-5,5,0,9,-0.4,3751,-17
Cc1cc(C)cc(N(CC(=O)NC2CCCCC2)C(=O)CCCC(=O)Nc2ccccn2)c1,-10,-12,4,0,2.5,6121,-22
Nc1ccc2[nH]ncc2c1,4,-3,-1,3,7.5,4169,-1
Cc1ccc(S(=O)(=O)N2CCN(C(C(=O)Nc3ccc(F)cc3)c3ccccc3)CC2)cc1 (stereo unspecified),7,2,-2,40,-1.7,2174,-21
O=C(O)c1ccc(NCc2ccc3c(c2)OCO3)cc1,·,·,-1,-1,0.6,5131,-15
COc1cc(OC)cc(C(=O)c2c(C)c(C#N)c3ccccn23)c1,-4,1,43,-5,-1.2,3457,-14
CCCSc1nnc(N2C(=O)CC(c3ccsc3)C3=C2CCCC3=O)s1 (stereo unspecified),·,·,-3,9,1.2,4075,10
C=C1CCN(C(CC(C)C)C(=O)NCc2ccccc2)S(=O)(=O)c2ccccc21 (stereo unspecified),18,12,·,1,14,·,·
O=C(NN=C/C=C/c1ccccc1[N+](=O)[O-])c1cc(-c2cccnc2)nc2ccccc12,-5,-8,·,-5,-1.4,·,·
Cc1ccn2c(=O)nc(SCC(=O)c3ccccc3)nc2c1,3,0,0,-2,6.0,·,-66
# Next part.
SMILES,Mtb hypoxia rep,Mtb hypoxia rep growth,BJeLR viability,ugtP null kill,RN4220 kill,Bead autofluor,PrP UTR inh
O=C(CCSc1nnc(-c2ccco2)o1)Nc1ccc(F)cc1,6,-4,0,2,4.7,4189,-1
Cc1cc(OCC(=O)OC(C)C(=O)Nc2ccc(N3CCOCC3)cc2)ccc1Cl (stereo unspecified),5,-1,·,11,8.3,8772,-19
CCCCc1ccc(NC(=S)N2CCN(C)CC2)cc1,6,-5,11,9,1.4,3565,-28
Cc1cccc(C(=O)OC(C)CN2C(C)CCCC2C)c1 (stereo unspecified),4,8,-4,8,3.7,3145,-52
COc1ccc(OC)c(C2C(C#N)=C(N)Oc3c2c(C)nn3-c2ccc(C)cc2)c1 (stereo unspecified),·,·,12,14,4.2,3469,-9
CCn1ncc(C2=NOC(C(=O)NCc3ccccc3)C2)c1C (stereo unspecified),1,10,13,3,3.2,26555*,13
C=CCSc1cc(C)nc2c(-c3ccccc3)cnn12,3,6,-5,43,2.1,4848,-80
Cc1ccc(-n2c(C)cc(C(=O)CSc3nnnn3C)c2C)cc1,9,21,8,-7,3.3,4255,-46
O=S(=O)(c1cccs1)N1CCN(c2ncccn2)CC1,4,11,1,3,3.8,9240,-9
COc1ccc(C2C=C(C(=O)O)OC(OCc3ccc(CO)cc3)C2)cc1 (stereo unspecified),-6,5,·,-1,1.6,·,·
CCOc1ccc(S(=O)(=O)N(C)CC(=O)NCCN2CCOCC2)cc1,2,11,-4,13,-1.3,3904,-11
CC(NC(=O)CSc1nnc(-c2cccc(S(=O)(=O)N3CCCCC3)c2)o1)C12CC3CC(CC(C3)C1)C2 (stereo unspecified),·,·,-1,·,·,2851,-20
CCN(CC)CCNC(=O)c1cc(Br)c(N)cc1OC,2,7,·,-4,3.8,6065,-25
CNc1oc(-c2ccccc2)nc1S(=O)(=O)c1ccc(C)cc1,5,-1,-4,2,6.0,4772,7

# Assay outcomes from PubChem.
